Bioassay records from PubChem BioAssay.
ClpP mod: qHTS Assay for Activators of ClpP; purified B. subtilis ClpP, FRET peptide cleavage, 20 min; Potency, µM (titrated, usually from 57.5 µM), for the others: top-dose activity change, negative = active; 340,000 compounds, 1.9% hits; ATP-dependent Clp protease proteolytic subunit (Bacillus subtilis (strain 168)), P80244; active = well fitted falling curve with a large enough effect; inconclusive = small, poorly fitted or top-dose-only effect; inactive = no such curve, though single readings can be large or run the other way; further: the source files actives as falling curves though it sought activators and does not explain the sign; nearly all actives have a fitted effect of over 65% in size; many hits overshoot -100%
Target sequence (P80244 whole entry, looked up): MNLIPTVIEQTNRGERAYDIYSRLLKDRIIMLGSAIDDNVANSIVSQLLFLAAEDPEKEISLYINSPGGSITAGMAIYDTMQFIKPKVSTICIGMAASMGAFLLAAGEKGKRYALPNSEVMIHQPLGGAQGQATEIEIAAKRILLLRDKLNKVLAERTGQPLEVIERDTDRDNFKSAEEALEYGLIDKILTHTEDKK
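ClpP 10 microg/mL final, pH 8 Tris/KCl buffer with BSA, glycerol, Tween-20; compound pinned in; FRET-FV substrate; RT 20 min; Ex320/Em430; ΔFRET vs ADEP 5.8 microM, DMSO, no enzyme.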
* hit, by the source's call; ? = inconclusive. Potency means the concentration at half of the fitted maximal effect. These rows are one share of the data; rates above refer to the full screens.

SMILES	ClpP mod
CCOc1ccccc1NC(=O)CSc1ncc(S(=O)(=O)c2ccc(C(C)(C)C)cc2)c(=O)[nH]1	-0.3%
Cc1cccc(-c2nc(C)c(CCNC(=O)C(=O)Nc3cccc(Cl)c3C)s2)c1	-0.9%
COc1ccc(-c2nc(C)c(CCNC(=O)C(=O)Nc3cccc(F)c3)s2)cc1OC	3.7%
O=[N+]([O-])c1cc(-c2nc(-c3ccccc3)no2)ccc1NCCc1ccccc1	1.4%
Cc1cc(Nc2cc(Cl)ccc2C)n2nc(Cc3ccccc3)nc2n1	1.4%
Cc1cccc(NC(=O)c2ccc3snnc3c2)c1	-0.6%
Cc1cc(NC(=O)C2CCC(CNS(=O)(=O)c3ccc(Br)s3)CC2)ccc1Br (centres undefined)	-0.2%
Cc1cc(C)n2nc(CNC(=O)c3ccc(Cl)cc3)nc2n1	-11%
CCOc1ccc(-c2c(C)nn3c(C)c(C(=O)NCc4cccc(OC)c4)cnc23)cc1OCC	2.8%
CN(Cc1ccccc1)C(c1cc2ccccc2o1)c1nnnn1C(C)(C)C (centres undefined)	-3.3%
CN(C)c1ccc(NC(=O)Cn2c(SCc3ccc(F)cc3)nc3cccnc32)cc1	-1.7%
COc1cccc(C(=O)N2CCCCC2CCN2CCCCC2)c1 (centres undefined)	1.2%
Cc1cccc(-c2nc3c4ccccc4nc(N4CCN(c5ccccc5F)CC4)n3n2)c1	-7.5%
COc1cc(/C=c2\[nH]c(=O)/c(=C/c3cc(OC)c(OC)c(OC)c3)[nH]c2=O)cc(OC)c1OC	2.2%
CCN(CCCNC(=O)c1nn(-c2ccc(OC)cc2)c(=O)c2c1c1ccccc1n2C)c1cccc(C)c1	-2.3%
CCN(CC)S(=O)(=O)c1cccc(C(=O)Nc2sc3c(c2C#N)CCC(C)C3)c1 (centres undefined)	3.2%
CCc1nn(CC(=O)N2CCN(c3cccc(OC)c3)CC2)c(=O)c2cc3occc3n12	-0.1%
COc1ccc(CCNC(=O)CCCn2nc(C)c3sc4ccccc4c3c2=O)c(OC)c1	-16%
Nc1nc2ccc(Cl)cc2cc1C(=O)NC1CC1	5.1%
Cc1ccc(-n2nc(C)c3c(C)c(CCC(=O)NCc4cccc(Cl)c4)c(C)nc32)cc1C	-30%

Retrieved by structure from above (two):
SMILES	ClpP mod
CCOc1ccccc1NC(=O)CSc1ncc(S(=O)(=O)c2ccc(C(C)(C)C)cc2)c(=O)[nH]1	-0.3%
Cc1cccc(NC(=O)c2ccc3snnc3c2)c1	-0.6%

An excerpt of the results above, as a working copy:
SMILES	ClpP mod
CCN(CC)S(=O)(=O)c1cccc(C(=O)Nc2sc3c(c2C#N)CCC(C)C3)c1 (centres undefined)	3.2%
CCc1nn(CC(=O)N2CCN(c3cccc(OC)c3)CC2)c(=O)c2cc3occc3n12	-0.1%
COc1ccc(CCNC(=O)CCCn2nc(C)c3sc4ccccc4c3c2=O)c(OC)c1	-16%

New compounds follow:
SMILES	ClpP mod
O=C(c1[nH]c2ccccc2c1Sc1ccc(Cl)cc1)N1CCCCC1	-0.4%
Cn1c(=O)n(C)c2cc(N3CCOCC3)c(NC(=O)c3ccccc3Br)cc21	-8.8%
O=C(Nc1c(Cl)cccc1Cl)c1cc(-c2ccc3c(c2)OCO3)on1	4.1%
COc1ccc(C(CNC(=O)COc2ccc(Cl)c(C)c2)N2CCOCC2)cc1 (centres undefined)	-1.4%
Cc1cc(Br)ccc1NC(=O)c1sc2ncn(Cc3ccccc3Cl)c(=O)c2c1C	2.1%
Cc1ccc(NC(=O)CN2C(=O)C(c3ccc(F)cc3)=NC23CCCCC3)c(C)c1	-2.3%
Cc1cccc2c1-c1sc(C(=O)N(C)c3cccc(Cl)c3)cc1CO2	?
O=C(CSc1nc2ccccc2n1Cc1ccc(F)cc1)N1CCN(c2ccc(F)cc2)CC1	-1.8%
COc1ccc(NC(=O)c2oc3ccccc3c2NC(=O)Cc2coc3ccc(C)cc23)cc1	3.5%
Cc1ccc(NC(=O)CSc2cn(CC(=O)N3CCCC3)c3ccccc23)cc1Cl	2.8%
COc1ccc(N2CCN(C(=O)CCc3c(C)nc4cc(-c5ccc(Cl)cc5)nn4c3C)CC2)cc1	-11%
COc1ccc(OC)c(CCNc2nc3cc(OC)c(OC)cc3c3nc(-c4cccnc4)nn23)c1	1.4%
COc1cc(Cl)c(C)cc1Nc1c2c(nc3ccccc13)CCC2	-0.6%
CCn1cc(C(=O)NCCc2ccc(Cl)cc2)c(=O)c2cc(S(=O)(=O)N3CCC(C)CC3)ccc21	0.8%
Cc1ccc(Nc2ncnc3c2cnn3-c2ccc(C)cc2)cc1	?
CCOc1ccc(NC(=O)C2(c3cccs3)CCOCC2)cc1	-2.8%
CC(C)c1ccc2oc(-c3ccc(NC(=O)c4cccc(Br)c4)cc3)nc2c1	-23%
COc1ccc(C(=O)CSc2c(C(C)C)cnc3c2c(=O)n(C)c(=O)n3C)cc1	0.7%
COc1cc2cc(CNc3ccccc3)c(=O)n(CC(=O)Nc3ccc(C)c(Cl)c3)c2cc1OC	4.3%
CCOC(=O)c1ccc(NC(=O)c2cnn3c(=O)c4c(n(CC)c23)CCN(Cc2ccc(OC)cc2)C4)cc1	?
Cc1ccc(Cl)cc1NC(c1ccc(F)cc1)c1nnc(-c2ccccc2)o1 (centres undefined)	-3.2%
COc1ccc(NC(=O)C(NS(=O)(=O)c2cccc3nsnc23)c2ccccc2)cc1 (centres undefined)	-2.0%
COc1ccc(-c2cn3c(n2)sc2cc(C(=O)NCCCN4CCN(C)CC4)ccc23)cc1	?
Cc1ccc(-n2nc3c(N4CCC(C(=O)N5CCC(C)CC5)CC4)nnc(C)c3c2C)cc1	-5.2%
Cc1cc(C)c2cc(C#N)c(NCCCN)nc2c1	4.7%
CN(C(=O)COc1ccccc1C(=O)Nc1ccccc1)c1ccccc1	-3.8%
COc1ccc(-c2cn3cccnc3n2)cc1NC(=O)c1ccccc1C(F)(F)F	4.8%
CCCCCS(=O)(=O)c1oc(-c2cccs2)nc1S(=O)(=O)c1ccc(C)cc1	-16%
Cc1cccc(N2CCN(S(=O)(=O)c3ccc(-c4cnc(C5CC5)o4)cc3)CC2)c1C	3.8%
CCc1ccc(NC(=O)Nc2cn(C)c(=O)c3ccccc23)cc1	?
CC(C)COc1ccc(C(=O)NCC2OCCc3ccccc32)cc1 (centres undefined)	0.7%
Cc1cccc(NC(=O)c2oc3c(c2C)-c2[nH]ncc2CC3)c1C	-14%
COc1ccc(-c2cn3nc(N4CCC(C(=O)NCc5cccc(Cl)c5)CC4)sc3n2)cc1	1.5%
COc1ccc(N2C(=O)c3ccccc3NC2c2ccc(OC)c(COc3ccccc3F)c2)cc1 (centres undefined)	3.8%
CC(C)CC(C(=O)NCC1CCN(Cc2ccc(F)cc2)CC1)N1Cc2ccccc2C1=O (centres undefined)	0.8%
COc1ccc2cc3cc(C(=O)N4CCN(c5cccc(C(F)(F)F)c5)CC4)sc3nc2c1	-3.7%
CCOc1cccc(C(=O)Nc2ccc(-c3nc4cc(C)cc(C)c4o3)cc2)c1	4.2%
O=C(NC1CCCC1)c1ccc2c(=O)n(Cc3ccccc3)c(SCc3ccccc3F)nc2c1	-4.5%
CC(C)N1C(=O)c2ccccc2NC(=O)C1C(=O)NCc1cccs1 (centres undefined)	-9.2%
COc1ccccc1CNc1nc(-c2ccco2)nn1S(C)(=O)=O	9.4%
CC(CNC(=O)c1ccc2c(c1)nc1n2CCOC1)c1ccccc1 (centres undefined)	-0.2%
COc1cccc2c1cc1c(=O)n(CC(=O)NC3CC3)nc(C)n12	?
COc1ccc(-n2cc(-c3ccccc3)c3c(NCCc4ccc(OC)c(OC)c4)ncnc32)cc1	?
Cc1ccc(-n2nc3c(=O)n(CC(=O)NCCC(C)C)nc(C)c3c2C)cc1	0.2%
CCOc1ccc(NCc2cccn2-c2nnc(N3CCC(C(=O)NCCc4ccc(OC)c(OC)c4)CC3)s2)cc1	-1.8%
CCCCn1nnnc1C(c1ccccc1)N1CCN(c2ncccc2C(F)(F)F)CC1 (centres undefined)	-1.5%
COc1ccc(OC)c(-c2nc3c(C#N)c[nH]n3c2NC2CCCCC2)c1	-12%
Cc1ccc(C(C)C)c(OCC(=O)NCC2(N3CCOCC3)CCCCC2)c1	-1.3%
CCOC(=O)c1cc(C#N)c(SC(C(=O)N2CCCCC2)c2ccccc2)nc1C (centres undefined)	-7.2%
CCOc1ccc(CNC(=O)c2cc3c(=O)n(C)c4ccccc4c3s2)cc1	-11%
COc1ccc(-c2ccc(=O)n(CC(=O)Nc3ccc(C)cc3C)n2)cc1	?
Cc1ccc(CCNC(=O)CCCn2c(=O)c3cccn3c3ccc(F)cc32)cc1	?
Cc1cc(=O)n2nc(N3CCC(C(=O)Nc4ccc(Br)c(C)c4)CC3)sc2n1	0.2%
COc1ccc(OC)c(CCNC(=O)c2cc3c(s2)-c2c(C)cccc2OC3)c1	4.0%
Cc1cccc(-c2noc(-c3cccnc3NCc3ccco3)n2)c1	4.2%
COc1ccc(-c2nc(C(=O)Nc3cccc(C(C)=O)c3)nn2-c2ccc(Cl)cc2)cc1	-2.6%
COc1ccc(Cn2c(C(=O)O)c(CNCCc3cc(OC)ccc3OC)c3ccc(C)cc32)cc1	-1.7%
Cc1ccc(-c2noc(-c3ccc(NCc4ccco4)c([N+](=O)[O-])c3)n2)cc1	-0.3%
O=C(Cc1ccc(Cl)cc1)Nc1ccc2oc(-c3ccccc3F)nc2c1	?
CCCCNC(=O)c1cnn2c(C)c(Cc3c(C)cc(C)cc3C)c(C)nc12	4.2%

Next entries.
SMILES	ClpP mod
CCc1cccc(NC(=O)CCc2nc3cccnc3n2-c2ccccc2)c1	-1.2%
COCCCn1cc(CN2CC(N3CCSCC3)CS2(=O)=O)nn1 (centres undefined)	-7.1%
COc1ccc(Cn2c(SCc3ccc(C(=O)NC4CCCCC4)cc3)nc3ccncc32)cc1	-24%
COc1cccc2c1Oc1ncccc1N(c1ccc(C(=O)NCc3ccccc3Cl)s1)C2	14µM*
CCN(CC)C(=O)C1CCN(S(=O)(=O)c2c(C)noc2/C=C/c2cccc(OC)c2)CC1	?
CN(C)c1ccc(-c2c3ccccc3nc3ccccc23)cc1	-5.0%
O=C(c1cccs1)c1cn(CCOc2ccccc2Cl)c2ccccc12	-19%
Cc1ccc(S(=O)(=O)NCc2ccc(C(=O)NCCc3cccc(C)c3)cc2)cc1	2.0%
COc1ccc(Cl)cc1CNCCSc1nnnn1C	1.0%
CCOc1ccccc1NC(=O)c1cnc(N2CCOCC2)c2ccccc12	-3.6%
CCN(CC)c1cc2c(cc1F)c(=O)c(S(=O)(=O)c1ccc(OC)cc1)cn2Cc1ccccc1	32µM*
COc1ccccc1NC(=O)C1=C(C)Nc2nc(SCc3ccccc3F)nn2C1c1cccnc1 (centres undefined)	-0.8%
COC(=O)c1c(-c2ccccc2)oc2c1C(OCCO)CCC2 (centres undefined)	4.7%
CCC(C(=O)Nc1ccc(C(C)=O)cc1)n1cnc2nc3c(cc2c1=O)CCCC3 (centres undefined)	-2.0%
CCCn1c(=N)c(C(=O)NC(C)c2ccccc2)cc2c(=O)n3ccccc3nc21 (centres undefined)	38%
CCOc1cccc(C(=O)N(Cc2ccc(C)o2)C2CCS(=O)(=O)C2)c1 (centres undefined)	0.7%
CCc1ccc(NC(=O)c2ccc(Cn3nc(N4CCN(c5ccccc5)CC4)ccc3=O)o2)cc1	-0.7%
CCOc1ccc(C(=O)Nc2ccc3oc(-c4ccncc4)nc3c2)cc1	-22%
COc1cc(OC)c(OC)cc1/C=C/c1ccc2ccccc2[n+]1C	1.1%
COc1ccc(CCC(=O)NO)cc1	0.9%

Among those listed so far, two have a nitro group on carbon:
SMILES	ClpP mod
O=[N+]([O-])c1cc(-c2nc(-c3ccccc3)no2)ccc1NCCc1ccccc1	1.4%
Cc1ccc(-c2noc(-c3ccc(NCc4ccco4)c([N+](=O)[O-])c3)n2)cc1	-0.3%

Among those listed so far, these contain a tert-butyl group.
SMILES	ClpP mod
CCOc1ccccc1NC(=O)CSc1ncc(S(=O)(=O)c2ccc(C(C)(C)C)cc2)c(=O)[nH]1	-0.3%
CN(Cc1ccccc1)C(c1cc2ccccc2o1)c1nnnn1C(C)(C)C (centres undefined)	-3.3%

Next section:
SMILES	ClpP mod
COc1cccc(C(c2c(O)cc(C)n(Cc3ccco3)c2=O)N2CCN(c3ccccc3)CC2)c1 (centres undefined)	-2.7%
CCC1CCCCN1C(=O)c1sc(-n2nc(C)c(Cc3ccccc3)c2C)nc1C (centres undefined)	0.0%
N#Cc1c[nH]n2c(NC3CCCC3)c(-c3cccc(Cl)c3)nc12	-1.2%
Cc1ncc(CO)c2c1Oc1nc(-c3ccc(Cl)cc3)nc(SCC(=O)N3CCCCC3)c1C2	0.4%
CCc1ccc(NC(=O)CC2C(=O)N(c3ccc(Cl)cc3)C(=O)N2Cc2ccco2)cc1 (centres undefined)	-1.6%
O=C(Nc1ccc(OCc2cc(=O)n3ccsc3n2)cc1)c1ccc(F)cc1	-5.2%
COc1cc(-c2ccc(N3C(c4ccsc4)=Cc4ccc(F)cc4C3c3c[nH]c4ccc(C#N)cc34)cc2)cc(OC)c1OC (centres undefined)	8.0%
Cc1cccc(NC(=O)CSc2ccc(-c3sc(-c4ccccc4)nc3C)nn2)c1C	-16%
CC1CCCCN1C(=O)CSc1c2c(nc3cc(Cl)ccc13)CCCC2 (centres undefined)	-0.2%
COc1cc(S(=O)(=O)NCCc2c(C)[nH]c3ccccc23)c(C)cc1C	-1.3%
O=S(=O)(c1ccccc1)c1nc(-c2ccc(F)cc2)oc1N1CCCCCC1	-17%
CCC(Sc1nc(-c2ccc(F)cc2)nc2c1Cc1c(CO)cnc(C)c1O2)C(=O)Nc1ccc(F)cc1 (centres undefined)	-8.1%
